# S aureus helic – S. aureus DNA helicase inhibition; purified S. aureus helicase, fluorescence unwinding assay; about half of the hits fall short of the stated cut; inhibition, %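 (tested at about 80 µM)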; 0.05% of 120,000 active; AID 485395;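 active = both duplicates at 50% or more, or one of them with a favoured structure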;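 note: 0% = mean of negative control wells and 100% = mean of positive control wells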
# MgrA-DNA mod – modulators of Staphylococcus aureus MgrA DNA binding; inhibition, %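 (about 10 µg/mL by stock and volumes)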; 0.13% of 84,000 active; fluorescence polarization;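 active = above 50% in either of two replicates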;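 note: 0% = protein plus DNA without compound and 100% = DNA alone without protein; higher means less MgrA bound to DNA so lower polarization; one replicate is shown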
# * hit, by the source's call; / = not tested or not shown.
# Values run as follows: S aureus helic, MgrA-DNA mod
> N/C(=N\OC(=O)c1c(Cl)cccc1Cl)c1cccc([N+](=O)[O-])c1
  /, 3.9
> O=C(Cc1nc(-c2cccs2)no1)Nc1cccc(C(F)(F)F)c1
  2, -2.4
> CC(C)Sc1nc(N2CCOCC2)c2c(c1C#N)CC(C)(C)OC2
  /, 2.1
> Cc1ccc(C)n1-c1sccc1C(=O)OCc1cc(=O)n2c3c(sc2n1)CCCC3
  24, /
> O=C1NC(=Nc2ccc(Br)cc2)SC1Cc1cccc(C(F)(F)F)c1 (stereo unspecified)
  /, 1.5
> O=C(/C=C1\Sc2ccccc2NC1=O)NCc1ccco1
  11, 2.9
> CC1=CC(C)C(COC(=O)Nc2ccccc2)C(C)C1 (stereo unspecified)
  -22, /
> CCc1nc(N2CCCCC2)c2sc(=S)n(-c3ccccc3)c2n1
  7, 2.4
> Cc1ccc(NC(=S)NC(=O)CC(C)C)cc1
  8, 1.5
> CCSc1nnc2c(n1)OC(c1cc(OC)c(O)c(OC)c1)Nc1ccccc1-2 (stereo unspecified)
  /, -2.4
> C=C(C)n1c(=O)n(Cc2ccc(C)cc2)c2ccccc21
  18, 0.5
> COc1cccc(-c2c(C(N)=O)nnc3cc(-c4ccccc4)nn23)c1
  /, -1.9
> COCCn1cc(C(=O)NC2CCCCCC2)c2c3ccccc3n(C)c2c1=O
  10, 1.3
> O=C(NCCc1ccccc1)C1c2ccccc2-c2ccccc21
  5, -1.8
> Cn1c(-c2nonc2NC(=O)c2cccs2)nc2ccccc21
  -9, 0.0
> CCCCN(C)C(=O)C1CCN(Cc2ccc(OCc3ccccc3)c(OC)c2)CC1
  -2, 1.4
> O=C(CSc1nnc(-c2c[nH]c3ccccc23)o1)NC1CC1
  -13, /
> CC(C)N(Cc1nc(-c2ccccc2)no1)C(=O)C(c1ccccc1)c1ccccc1
  -5, /
> CC1CC2OC(C)(C)OC2C(OC(=O)c2ccccc2)O1 (stereo unspecified)
  4, -1.9
> N/C(=N\O)c1ccc(N2CCN(c3ncccc3C(F)(F)F)CC2)nc1
  /, -0.3
> COc1ccc(NC(=O)c2nc(S(C)(=O)=O)ncc2Cl)cc1Cl
  0, 6.3
> Cc1cc(C)nc(SCC(=O)OCC(=O)c2cc(C)n(C)c2C)n1
  8, /
> COc1ccc(NC(C)=S)cc1OC
  -10, /
> CCN(Cc1ccccc1)C(=O)Cn1nc(C)n2c(cc3occc32)c1=O
  2, /
> O=C(CCc1c[nH]c2ccccc12)OCc1nnc(-c2ccccc2)o1
  3, 1.4
> CN(C)c1ccc(-n2nnnc2SCc2ccc(OC(F)(F)F)cc2)cc1
  /, -1.6
> CCc1cc(-c2ccccc2)nc2ccccc12
  15, /
> c1ccc(OCCSc2nncn2-c2ccccc2)cc1
  -1, /
> CCOC(=O)c1ccc(S(=O)(=O)NNC(=O)c2ccccc2N)cc1
  /, -1.1
> COc1cc(-c2cc(C(F)(F)F)n3ncc(C(=O)N4CCN(Cc5ccccc5)CC4)c3n2)cc(OC)c1OC
  /, -0.6
> Cc1ccc(S(=O)(=O)c2nc(Nc3nccs3)sc2Cl)cc1
  -3, /
> CC1CCCN(CNC(=O)c2ccccc2)C1 (stereo unspecified)
  8, 0.2
> C/C(=N\O)c1ccn(S(=O)(=O)c2ccc(Cl)cc2)c1
  /, -0.5
> CCOc1ccc(C=NC2=C(C#N)CCC2)cc1OC
  -22, /
> Oc1oc(C=Nc2cccc(C(F)(F)F)c2)c2ccccc12
  /, 0.9
> CCOc1ccc(-c2[nH]ncc2-c2csc(C)n2)c(O)c1
  5, /
> Cc1ccsc1C(=O)OCc1ccc(C#N)cc1
  0, /
> NCCC(Cc1ccccc1)c1ccco1 (stereo unspecified)
  4, /
> O=C(COC(=O)c1ccc2c(c1)OCCO2)NCc1ccccc1
  -17, /
> COc1ccc(CNCCC2(O)CC(C)N(C)CC2C)cc1OC (stereo unspecified)
  4, -1.1
> COc1ccc(C)cc1NC(=O)C1CCN(S(=O)(=O)c2ccc(OC)c(OC)c2)CC1
  17, -2.0
> O=C1CCC(C(=O)OCc2c(Cl)cccc2Cl)N1 (stereo unspecified)
  -4, /
> O=C1CSC(=S)N1c1ccc(F)c(F)c1
  21, /
> COC(=O)c1ccc(N=c2sc(C(=O)OC)cc(=O)n2Cc2ccccc2)cc1
  17, -1.8
> O=C(NC(=O)c1ccccc1O)c1ccoc1
  /, -0.5
> Cn1c(C(C#N)C(=O)c2cccc(S(=O)(=O)N3CCc4ccccc43)c2)nc2ccccc21 (stereo unspecified)
  15, /
> Cc1oc(C)c(C(=O)O)c1C
  19, /
> O=c1[nH]c(O)c(N=Nc2ccc(C(F)(F)F)cc2[N+](=O)[O-])c(=O)[nH]1
  /, 2.1
> O=C(N/N=C/c1ccccc1O)c1ccc(N2Cc3ccccc3C2)cc1
  7, 5.5
> O=C(CSc1n[nH]c(=O)n1C1CC1)Nc1ccccc1
  /, -0.3

# Later entries:
# Values run as follows: S aureus helic, MgrA-DNA mod
> CC(C)c1ccc(NC2=CC(=O)CC(C)(C)C2)cc1
  19, /
> Cc1nc(-c2ccccn2)nc(NC2CCN(c3ncc(C(F)(F)F)cc3Cl)CC2)c1Cl
  /, 2.3
> COc1cccc(OC)c1C(=O)Nc1nnc(SC)s1
  8, /
> N#Cc1cnn(-c2cccc(Cl)c2)c1-n1cccc1
  /, -2.5
> O=C(Nc1ccc(N2CCCCC2)cc1)Nc1ccc(F)cc1F
  -35, /
> O=C(COC(=O)c1ccccc1O)c1ccc(Cl)cc1
  26, 0.1
> Cc1ccc(-n2c(C)cc(/C=N/NC(=O)CC3(C)OCCO3)c2C)cc1
  -1, 0.9
> Cc1cc(CO)sc1C
  22, /
> CC1CCN(C(=O)COC(=O)c2cc(C(F)(F)F)cc(C(F)(F)F)c2)CC1
  20, /
> NNC(=O)c1ccccc1O
  /, -0.9
> COC(=C(C#N)C#N)c1c(-c2c(Cl)cccc2Cl)noc1C
  12, /
> Cc1ccc2[nH]c3c(C#N)c(=O)c4nc(N5CCCC5)ncc4n3c(=O)c2c1
  23, /
> COc1cc(OC)cc(C(=O)NC2C3CC4CC(C3)CC2C4)c1 (stereo unspecified)
  24, -1.3
> Nc1nc(N)nc(SCC(=O)N2CCSC2c2ccccc2F)n1 (stereo unspecified)
  4, /
> CCN(Cc1cc2ccc(C)cc2[nH]c1=O)C(=O)C1CCCCC1
  0, -2.4
> Cc1cc(C)n2c(CNC(=O)c3ccc(S(=O)(=O)N4CCCCCC4)cc3)nnc2n1
  -3, /
> COc1cc2c(cc1OC)/C(=C/c1cccs1)C(=O)N2
  /, 2.0
> CCOC(=O)c1c(C)oc2nc(CN(c3ccc(OC)cc3)S(=O)(=O)c3cc(C)ccc3C)nc(N)c12
  -7, /
> CCCc1cc(-c2[nH]ncc2-c2ccc(C(=O)OCC)o2)c(O)cc1O
  -3, /
> O=C1CC(Nc2ccc(F)cc2)C(=O)N1c1ccc(F)cc1 (stereo unspecified)
  /, -0.3
> COc1ccc(CC(N)=S)cc1
  /, -3.3
> S=c1[nH]nc(Nc2cc(Cl)cc(Cl)c2)s1
  /, 4.0
> O=[N+]([O-])c1ccc2nc(N3CCOCC3)nc(-c3ccccc3)c2c1
  /, 0.0
> C=CCn1c(SCc2ccc(C#N)cc2Cl)nnc1-c1cccc(OC)c1
  2, -2.4
> Clc1ccc(-c2nc3cnccn3c2NC2CCCC2)cc1
  8, 1.5
> COc1ccc(-n2c(SCC(=O)O)nc3c([nH]c4ccccc43)c2=O)cc1OC
  3, /
> O=C(c1csc2c1CCCC2)N1CCc2ccccc2C1
  -5, /
> Cc1nc2nc(NCc3c(F)cccc3Cl)[nH]n2c(=O)c1C
  3, -0.5
> CC(C)C1=CCC(C)/C(=C\c2ccc(Cl)cc2)C1=O (stereo unspecified)
  12, -0.5
> CCOC(=O)CC1=C(C(=O)OCC)C(c2cccnc2)C(C#N)=C(N)O1 (stereo unspecified)
  /, 1.9
> OCc1nc2c(ccc3ccccc32)[nH]1
  5, 2.2
> C/C(=N\NC1=NCCN1)c1ccc(F)cc1
  /, -0.6
> Cc1cc(C(=O)COC(=O)c2cccs2)c(C)n1CCc1ccccc1
  -15, /
> O=C1Nc2ccccc2S/C1=C/c1ccccc1
  /, -1.6
> CCOC(=O)C1CCN(/C=C(\C#N)S(=O)(=O)c2ccccn2)CC1
  -17, /
> CC(C)(C)C(=O)CN1CCN(c2ccccc2O)CC1
  -4, /
> CCn1c(-c2ccccc2)c(C(=O)CN2CCN(C)CC2)c2ccccc21
  -10, /
> CC(C)Cn1c(CCC(=O)O)ccc1-c1ccccc1
  1, /
> COC(=O)CNC(=O)c1ccccc1Cl
  5, 2.9
> COC(=O)c1ccc(CNC(=O)Nc2cccc(SC)c2)cc1
  /, -1.4

# 6 compounds already listed, ordered by the number in S aureus helic, highest first:
# Values run as follows: S aureus helic, MgrA-DNA mod
> COC(=O)CNC(=O)c1ccccc1Cl
  5, 2.9
> CC(C)Cn1c(CCC(=O)O)ccc1-c1ccccc1
  1, /
> CC(C)(C)C(=O)CN1CCN(c2ccccc2O)CC1
  -4, /
> CCn1c(-c2ccccc2)c(C(=O)CN2CCN(C)CC2)c2ccccc21
  -10, /
> Cc1cc(C(=O)COC(=O)c2cccs2)c(C)n1CCc1ccccc1
  -15, /
> CCOC(=O)C1CCN(/C=C(\C#N)S(=O)(=O)c2ccccn2)CC1
  -17, /

# Other records
# Values run as follows: S aureus helic, MgrA-DNA mod
> CCOC(=O)c1c(C)oc2ncnc(N(C)Cc3ccccc3)c12
  -22, /
> Nc1ccccc1C(=O)NCc1ccco1
  -13, 2.4
> CCCc1cc(=O)[nH]c(SCC(=O)c2ccccc2OC)n1
  -16, /
> Cc1ccc(NC(=O)Nc2c(C)noc2-c2ccc(C(F)(F)F)cc2)cc1
  21, /
> O=C1CNC(=S)N1Cc1ccc(Cl)cc1
  /, -0.2
> COC(=O)c1ccsc1NC(=O)C1COc2ccccc2O1 (stereo unspecified)
  7, /
> O=C(c1cc2ccccc2oc1=O)N1CCSC1c1ccco1 (stereo unspecified)
  -1, 2.0
> C=CCn1c(SCC(=O)O)nnc1-c1cccs1
  -3, /
> CC(C)(C)c1ccc(N=Cc2ccsc2)cc1
  8, -1.6
> CC1(C)Oc2ccc(N)cc2O1
  11, 1.6
> O=c1cc(O)nc2c(Cl)cc(C(F)(F)F)cn12
  5, /
> COc1ccc(/C=C(\C#N)c2nc3ccccc3[nH]2)cc1
  /, -0.5
> CCOC(=O)N/N=C\c1cn(C)c2ccccc12
  -16, /
> Cc1cc(NC2=CC(=O)CCC2)ccc1I
  -18, -3.0
> CCOC(=O)c1ccc2[nH]c3c(c2c1)CCCCC3=O
  -3, 6.2
> O=C(OC(C(=O)c1ccccc1)c1ccccc1)c1ccco1 (stereo unspecified)
  -9, /
> COC(=O)COc1cc(C)nc(SC)n1
  8, -0.5
> N#Cc1sc2nc(-c3ccncc3)cc(C(F)(F)F)c2c1N
  8, -1.7
> CC(C)n1c(SCC(=O)O)nc2cc(Cl)ccc21
  /, -0.3
> O=C(NC1CCCCCCCCCCC1)c1ncn[nH]1
  10, -1.0
> CCC1CCCCN1C(=O)CN1C(=O)c2ccccc2C1=O (stereo unspecified)
  11, 0.1
> FC(F)(F)c1ccc(CN2CCCCCCC2)cc1
  -5, -1.6
> O=C1Nc2ccccc2S/C1=C\c1ccccc1
  15, /
> CC(C)NC(=O)Cc1ccc(Br)cc1
  13, 0.9
> NCCNc1cc(-c2ccccc2)nc2ccccc12
  /, -0.1
> Cn1cc(SCC(=O)N2CCCC2)c2ccccc21
  -4, /
> O=C(Nc1cccc(-c2nnn(CC(=O)N3CCc4ccccc4C3)n2)c1)C1CCC1
  6, -3.1
> O=C(COC(=O)c1ccccc1NCCO)NCc1ccc(F)cc1
  -5, /
> Cc1ccccc1N1C(=O)Cc2ccccc2C1=O
  9, /
> FC(F)(F)c1ccc(NCc2cn3ccccc3n2)cc1
  -4, -2.8
> CCN(CC(=O)NCc1cccs1)C(=O)c1oc2ccc(OC)cc2c1C
  -7, /
> CC(=O)Nc1cccc(NC(=O)Nc2ccccc2)c1
  12, /
> O=C(CSc1nc2ccccc2s1)OCN1C(=O)c2ccccc2C1=O
  9, 3.1
> N#Cc1c(NCc2ccccc2)ccnc1Cl
  12, 1.2
> CCOC(=O)c1cncc(C#CC(C)(C)O)c1
  /, -0.5
> O=C(NCc1ccncc1)c1cccc(COc2ccc3c(c2)CCC3)c1
  16, /
> CC1(CC(=O)N/N=C/c2ccc(Br)o2)SCCS1
  -15, /
> CC(=O)OCCOCn1cc(I)c(=O)[nH]c1=O
  12, /
> O=C(O)c1c[nH]c2cc(Cl)cc(Cl)c2c1=O
  /, -0.7
> CCC(C)(C)C1CCC(=NNC(=O)c2ccoc2C)CC1 (stereo unspecified)
  -11, /
> O=C(CSc1ccc2nnc(-c3ccncc3)n2n1)N1CCCC1
  7, /
> OC(CSc1ccccc1)CN1CCC(Nc2nccc(C(F)(F)F)n2)CC1 (stereo unspecified)
  /, -0.3
> c1ccc(-n2nnnc2Sc2nnc(C3COc4ccccc4O3)n2-c2ccccc2)cc1 (stereo unspecified)
  3, /
> O=c1[nH]c(CN2CCCC2)nc2scc(-c3ccccc3)c12
  -25, /
> COc1ccccc1OCCSc1nc2ccccc2n1CCC(=O)O
  /, -0.6
> O=C(O)C(c1ccccc1)N1CCCCC1 (stereo unspecified)
  14, -7.7
> O=C(N/N=C/c1c(O)ccc2ccccc12)N/N=C/c1c(O)ccc2ccccc12
  /, -0.7
> C#CCN1C(=O)S/C(=C/c2cc(OC)c(OCC(=O)O)cc2Br)C1=O
  7, 11
> NC(=O)c1nnn(Cc2ccccc2)c1N
  -4, 1.4
> CCCCNc1ncnc2c1[nH]c1ccc(C)cc12
  24, /
> CN1c2ccccc2C(=O)/C(=C/N=S(C)(=O)c2ccccc2)S1(=O)=O (stereo unspecified)
  /, -0.7

# Screens as filed in PubChem.

# A portion of the library (hit frequency here may not be typical).
